Mtb growth – M. tuberculosis H37Rv growth inhibitors, H37Rv strain (AID 1626); M. tuberculosis H37Rv growth inhibition; higher % means a stronger effect; 220,000 tested, 0.95% active; inhibition, % at 10 µM, or IC50 in µM where a hit was titrated;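 active = confirmed in a dose series; inconclusive = inhibition above 80% but not taken into the dose series; inactive = below 80% or under 30% at every dose of the series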;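 also: bacteria incubated seven days before Alamar blue readout; 0% = bacteria only wells and 100% = bacteria with antibiotic wells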
RecA splice inh – Mtb RecA intein splicing inhibition; cell-free RecA intein splicing, fluorescence; inhibition, %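 (about 9 µM by stock and volumes)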; 290,000 tested, 0.75% active; AID 2221; in the data active = inhibition above about 30%; inconclusive = no clear call, values can overlap the other calls;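 also: 0% = vehicle wells and 100% = reference inhibitor control wells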
Target sequence (P9WHJ3 whole entry, looked up, canonical isoform): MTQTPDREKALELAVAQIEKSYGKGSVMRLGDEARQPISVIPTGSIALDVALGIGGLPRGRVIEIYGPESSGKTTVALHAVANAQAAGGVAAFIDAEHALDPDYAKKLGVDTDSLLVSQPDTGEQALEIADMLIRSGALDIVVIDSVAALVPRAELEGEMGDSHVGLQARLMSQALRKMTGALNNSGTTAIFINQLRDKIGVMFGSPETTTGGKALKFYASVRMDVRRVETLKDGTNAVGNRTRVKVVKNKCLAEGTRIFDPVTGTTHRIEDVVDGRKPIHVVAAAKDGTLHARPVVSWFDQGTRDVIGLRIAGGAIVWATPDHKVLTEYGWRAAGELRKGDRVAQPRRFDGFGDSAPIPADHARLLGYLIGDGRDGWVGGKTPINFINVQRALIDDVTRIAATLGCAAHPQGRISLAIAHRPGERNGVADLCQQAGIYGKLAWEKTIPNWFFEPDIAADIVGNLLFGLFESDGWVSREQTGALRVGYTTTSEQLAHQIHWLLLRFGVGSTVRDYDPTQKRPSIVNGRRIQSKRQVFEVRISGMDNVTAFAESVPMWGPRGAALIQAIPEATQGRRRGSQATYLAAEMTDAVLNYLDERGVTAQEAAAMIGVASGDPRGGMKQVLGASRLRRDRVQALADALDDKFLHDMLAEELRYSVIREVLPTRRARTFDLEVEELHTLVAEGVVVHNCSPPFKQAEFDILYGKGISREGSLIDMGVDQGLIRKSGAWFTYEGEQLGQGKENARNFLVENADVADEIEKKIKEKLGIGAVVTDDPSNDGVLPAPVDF
YopH inh – YopH (Yersinia) phosphatase inhibition; fluorescence Ex485/Em525; inhibition, %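 (about 10 µM by stock and volumes)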; 140,000 tested, 0.16% active;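 active = inhibition of 50% or more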;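 also: controls were vehicle for no effect and minimum signal wells for full effect; inactives centre near -20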
Mtb bLac sens – beta-lactam sensitization of Mtb H37Rv. 330,000 tested, 0.27% active. inhibition, % at 25 µM. M. tuberculosis H37Rv growth with meropenem, percent inhibition; hits of this screen are not shown here;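 active = about 74% or more and at least 40 points above the plate without the antibiotic, then above 30% in a dose series; inconclusive = first-round hits that could not be retested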;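 also: growth measured after seven days incubation then overnight dye step; 0% = bacteria only wells and 100% = bacteria with antibiotic; twin plates without the antibiotic show which effects depend on it; some results filed as inactive read as strong as hits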
Arbovirus inh – blocks arbovirus infection; arbovirus infection cell-based antiviral screen; 200,000 tested, 0.37% active; AID 1251; inhibition, % at 10 µM;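 active = inhibition from about 30%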;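 also: bluetongue infection of BSR cells; cell survival read as ATP light after 72 h; 0% = infected wells without compound and 100% = uninfected wells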
Arbovirus inh repeat – recorded beside Arbovirus inh, whose call it bears; inhibition, %; measured here: 10K subset replicate screen; many hits read low in the repeat;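 first of two repeat runs on a subset; 0% = infected and 100% = uninfected wells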
Starred values were filed as active, the others as inactive; ? = inconclusive; . = not tested or not shown. Only part of the results is shown. The share of hits here may be higher or lower than overall.

SMILES	Mtb growth	RecA splice inh	YopH inh	Mtb bLac sens	Arbovirus inh	others
COc1ccc(OC)c(S(=O)(=O)Nc2cc(C)on2)c1	.	-1.0	.	3	.
CC(=O)c1c(C)[nH]c(C(=O)NC2CCCCC2)c1C	.	-1.8	-25	-1	-10
CCn1c(CSc2nc(C)cc(C)n2)nnc1SCC(=O)Nc1cccc2ccccc12	2%	5.5	-7	7	6
Cn1c(SCC(=O)NC2CC2)nnc1-c1ccccc1Cl	.	-6.6	.	-7	.
CCOC(=O)C1Nc2ccccc2C2c3ccccc3CC12 (centres undefined)	-4%	19	.	47	.
COc1cccc(NC(=O)COC(=O)c2nc3nccc(C)n3n2)c1	-3%	-0.5	-52	-5	1
CC(CC(=O)O)CC(=O)N1CCN(S(=O)(=O)c2cccs2)CC1 (centres undefined)	.	-0.7	.	-9	.
Cc1ccc(C)c(S(=O)(=O)N2CCN(CC(=O)Nc3ccc([N+](=O)[O-])cc3)CC2)c1	2%	2.6	-22	2	-5
Cc1cc(C(=O)NCC(=O)OCC(=O)N(C2CCCCC2)C2CCCCC2)ccc1[N+](=O)[O-]	-7%	6.7	-19	-1	14
Cc1ccc([N+](=O)[O-])cc1S(=O)(=O)N1CCC(C)CC1	4%	0.5	.	2	-5
Cc1ccccc1NC(=O)NCCN1C(=O)C2C3C=CC(C3)C2C1=O (centres undefined)	-7%	0.3	-22	-2	-1	Arbovirus inh repeat=3
COc1ccc(Nc2cc(C)c3ccc(O)cc3n2)cc1	23%	2.1	.	15	.

Five entries out of the list, sorted by SMILES length, low to high:
SMILES	Mtb growth	RecA splice inh	YopH inh	Mtb bLac sens	Arbovirus inh	others
COc1ccc(Nc2cc(C)c3ccc(O)cc3n2)cc1	23%	2.1	.	15	.
CC(=O)c1c(C)[nH]c(C(=O)NC2CCCCC2)c1C	.	-1.8	-25	-1	-10
COc1cccc(NC(=O)COC(=O)c2nc3nccc(C)n3n2)c1	-3%	-0.5	-52	-5	1
CCn1c(CSc2nc(C)cc(C)n2)nnc1SCC(=O)Nc1cccc2ccccc12	2%	5.5	-7	7	6
Cc1cc(C(=O)NCC(=O)OCC(=O)N(C2CCCCC2)C2CCCCC2)ccc1[N+](=O)[O-]	-7%	6.7	-19	-1	14

Next section.
SMILES	Mtb growth	RecA splice inh	YopH inh	Mtb bLac sens	Arbovirus inh	others
COc1ccc(OC)c(S(=O)(=O)N2CCC(C(=O)NCc3cccnc3)CC2)c1	.	1.2	.	-6	.
C=CCn1c(SCC(=O)c2[nH]c(C)c(C(=O)OCC)c2C)nc2scc(-c3ccc(OC)cc3)c2c1=O	2%	-2.2	-28	.	-32
CCOC(=O)c1cc(=O)n(Cc2ccccc2C)c2ccccc12	5%	5.7	-6	58	14
COC(=O)CCC/C=C1/SCC(NC(=O)c2ccccc2)C1=O (centres undefined)	-10%	2.2	-11	10	-1
Cc1ccc(S(=O)(=O)NCCN2CCOCC2)cc1C	1%	.	-26	6	5
Cc1ccc(C2SCC(=O)N2Cc2cn3ccsc3n2)o1 (centres undefined)	-1%	-4.1	-30	2	8
CCC(CC)COC(=O)C1=C(C)NC(=O)NC1c1cccc([N+](=O)[O-])c1 (centres undefined)	.	9.4	.	-4	.
COC(=O)C1=C(C)C(c2cccs2)NC(=O)N1C (centres undefined)	-7%	-0.6	13	-6	3
COC(=O)N/N=C/c1cn(Cc2ccc(F)cc2)c2ccccc12	-2%	1.6	.	-1	.
CCCCOc1ccc(C(=O)OCC(=O)N2CCOCC2)cc1	.	-0.4	.	-4	.
Cc1c(CC(=O)O)c(=O)oc2c(C)c(OCc3c(F)cccc3Cl)ccc12	.	-1.6	.	-2	.
COC(=O)c1ccccc1NC(=O)c1ccc2c(c1)CC(C)O2 (centres undefined)	.	0.8	.	82	.
Cn1cc([N+](=O)[O-])c(C(=O)Nc2nccs2)n1	-5%	-3.7	.	-3	-29
COC(=O)CC(NC(=O)c1ccc(C)cc1)c1ccccc1 (centres undefined)	-4%	.	7	3	-1
CSc1ncc(Sc2ccccc2)c(C(=O)O)n1	.	1.2	.	-7	.
Cc1ccc(C)c(OCC(=O)O/N=C(\N)c2cccc([N+](=O)[O-])c2)c1	57%	0.0	.	82	.
Cc1c(N2C(=O)c3ccc(Br)cc3C2=O)c(=O)n(-c2ccccc2)n1C	-9%	1.6	-19	-1	-3
O=C(c1ccc(Cl)cc1)c1ccc(Oc2cc(NN3CCCCC3)c([N+](=O)[O-])cc2[N+](=O)[O-])cc1	.	6.1	.	-3	.
Cc1ccc(S(=O)(=O)N(Cc2cc3ccccc3[nH]c2=O)CC2CCCO2)cc1 (centres undefined)	.	3.9	.	-3	.
CN(C)c1nc(Oc2ccc(=O)[nH]n2)nc(N2CCCCC2)n1	-5%	5.5	-44	12	-1
COc1ccc2cc(C3CC(c4ccco4)=NN3S(C)(=O)=O)c(Cl)nc2c1 (centres undefined)	0%	1.6	.	1	.
CCOC(=O)CC(NC(=O)Cc1ccc(F)cc1)c1ccccc1Cl (centres undefined)	24%	0.2	-14	0	-8
O=C(O)c1ccc2c(c1)CCCN2	-7%	.	.	-5	.
O=C(O)[C@H]1CCC(=O)N1Cc1ccco1	-8%	-1.2	-48	-6	-5
COc1ccc(C(=O)NC(C)CCn2cccn2)cc1OC1CCN(C(C)C)CC1 (centres undefined)	.	2.1	.	-6	.
CC(=O)c1cccc(NC(=O)N2CCCC2C(=O)Nc2ccc3c(c2)OCO3)c1 (centres undefined)	-5%	2.3	.	-3	-6
COCCCNc1nc2c(c(=O)n(Cc3cccc(Br)c3)c(=O)n2C)n1C	.	-1.5	.	4	.
CCOC(=O)C(C)NC(=O)CCc1nnc2ccc(N3CCCCC3)nn12 (centres undefined)	.	-0.5	.	1	.
CN1C(=O)N(C)C2(c3ccccc3)NNC(N)=NC12c1ccccc1 (centres undefined)	-2%	-1.6	.	-1	.
COc1ccc(NC(=O)CCC(=O)OC(C(=O)c2ccccc2)c2ccccc2)cc1 (centres undefined)	-10%	0.6	-38	1	0
Cc1ccc(CNC(=O)C2CC3Cn4c(nc5cc(Cl)c(Cl)cc54)C3N2C)o1 (centres undefined)	-8%	0.8	.	-5	.
Cc1cc2cc(CCNC(=O)c3ccc(S(=O)(=O)N4CCCC4)cc3)c(=O)[nH]c2cc1C	.	4.8	.	7	.
CC(C)(C)c1[nH]nc2c1C(c1ccoc1)C(C#N)=C(N)O2 (centres undefined)	-1%	56*	-6	0	3
O=C(Cn1cnc2c(oc3nc4c(cc32)CCCC4)c1=O)Nc1ccccc1	.	-1.2	.	-6	.
COc1cc(NC(=O)CC(C)S(=O)(=O)c2cc3c(cc2C)NC(=O)CO3)cc(OC)c1OC (centres undefined)	.	8.2	.	4	.
CC(=O)n1cc(N(C(=O)CCl)c2ccccc2)c2ccccc21	3.1µM*	86*	.	100	.

Reprinted at random: 2 compounds from above.
SMILES	Mtb growth	RecA splice inh	YopH inh	Mtb bLac sens	Arbovirus inh	others
CC(C)(C)c1[nH]nc2c1C(c1ccoc1)C(C#N)=C(N)O2 (centres undefined)	-1%	56*	-6	0	3
O=C(Cn1cnc2c(oc3nc4c(cc32)CCCC4)c1=O)Nc1ccccc1	.	-1.2	.	-6	.

3 neighbouring records from above, for reference:
SMILES	Mtb growth	RecA splice inh	YopH inh	Mtb bLac sens	Arbovirus inh	others
O=C(Cn1cnc2c(oc3nc4c(cc32)CCCC4)c1=O)Nc1ccccc1	.	-1.2	.	-6	.
COc1cc(NC(=O)CC(C)S(=O)(=O)c2cc3c(cc2C)NC(=O)CO3)cc(OC)c1OC (centres undefined)	.	8.2	.	4	.
CC(=O)n1cc(N(C(=O)CCl)c2ccccc2)c2ccccc21	3.1µM*	86*	.	100	.

The listing continues.
SMILES	Mtb growth	RecA splice inh	YopH inh	Mtb bLac sens	Arbovirus inh	others
FC(F)(F)c1cc(Oc2ccc(Cl)cc2)nc(-c2ccccn2)n1	12%	-0.2	-22	-1	-4
COC(=O)c1nn(-c2nc(-c3ccc(OC)c(OC)c3)cc(C(F)(F)F)n2)cc1[N+](=O)[O-]	-3%	4.4	.	-10	13
CCOC(=O)C(=CNc1cccnc1Oc1ccc(C)c2c1CCC2)C(=O)OCC	-8%	-1.0	.	0	.
CC1CC(NC(=O)CCn2c(=O)oc3ccccc32)CC(C)(C)C1 (centres undefined)	2%	.	-16	3	1	Arbovirus inh repeat=-2
O=S1(=O)NC(c2ccccc2)CC(CC2CCCCC2)O1 (centres undefined)	.	7.9	.	-4	.
COc1ccc(-c2nn(C)c(=O)c3ccccc23)cc1CNC(=O)c1ccco1	-5%	6.5	25	26	-21
COc1ccc(C2C(C#N)=C(C)NC3=C2C(=O)CC(C)(C)C3)cc1 (centres undefined)	7%	-31	-27	-3	-6
CCCCn1c(N)c(N(CCOC)C(=O)c2cc(-c3ccccc3Cl)nc3ccccc23)c(=O)[nH]c1=O	.	1.6	.	-15	.
O=C(NC(=S)Nc1ccc(Cl)cc1)c1ccccc1	9%	0.8	.	68	.
COC(=O)NC1(C(F)(F)F)C(=O)NC(C)=C1C(=O)OC (centres undefined)	0%	-1.2	-23	5	6
Nc1nc(-c2ccco2)cs1	0%	-0.3	-1	18	21
Oc1ccc(Br)cc1-c1cc(-c2ccco2)[nH]n1	6%	19	-19	57	9
COC(=O)C1=C(CSc2nc3ccccc3s2)NC(=O)NC1c1ccc(F)cc1 (centres undefined)	1%	.	-26	-3	-7
CCN/C=C(\C#N)S(=O)(=O)c1ccc(Br)cc1	-1%	-2.9	.	-2	.
Cc1ccc(SCc2cn3c(C)csc3n2)cc1	9%	3.9	2	-2	1
Cc1ccc(C(=O)N[C@H](C(=O)OCC(=O)Nc2cccc(S(N)(=O)=O)c2)C(C)C)cc1	-3%	0.7	.	1	.
Cc1nnc(SCC(=O)NCc2ccc(F)cc2)[nH]c1=O	3%	0.3	.	6	1
COc1cc2c(cc1OC)C(c1cc(Br)ccc1F)N(C(=O)CCl)CC2 (centres undefined)	.	86*	.	100	.
CC(Oc1ccccc1F)C(=O)NNC(=O)c1cc2ccccc2o1 (centres undefined)	1%	1.9	.	-4	0
CCN(CC)C(=O)C(=O)Nc1ccc(F)c(Cl)c1	-5%	-1.3	.	4	15
Cc1ccc(NS(=O)(=O)c2ccc(C(=O)NCC(c3ccco3)N(C)C)cc2)cc1 (centres undefined)	.	0.0	.	3	.
O=C(Cc1ccc(Br)cc1)NC1CCSC1=O (centres undefined)	-3%	0.0	.	1	0
O=c1[nH]c(C2CCCN(S(=O)(=O)c3ccccc3)C2)nc2c1nnn2Cc1ccc(OC(F)(F)F)cc1 (centres undefined)	.	-2.0	.	2	.
CN(CCO)c1nc(N)c2c(N)nc3c(c2c1C#N)CC(=O)N3C1CCCC1	7%	-22	1	-2	-1
NC(=O)c1ccc(-c2ncc(-c3ccccc3)o2)cc1	71%	-1.0	-42	?	-2
COc1ccc(-c2cc(-c3nnc(COC(=O)c4ccc(O)cc4)o3)c3ccccc3n2)cc1OC	7%	-5.9	.	3	0
O=C(CSc1ncn[nH]1)CSc1ncn[nH]1	-9%	0.1	.	-3	4
Cc1cnc(C(=O)Nc2ccccc2C(=O)N2CCOCC2)cn1	-4%	-2.7	-23	-14	3
O=S(=O)(c1ccc(N2CCOCC2)nc1)N(Cc1ccccn1)Cc1ccccn1	-1%	-1.0	.	-2	.
Cc1cc(-c2onc(C)c2C(=O)Nc2ccc(C(F)(F)F)cc2)no1	-6%	0.3	.	4	.
COc1cc(C(=O)NCc2nnc(SCC(=O)Nc3cc(C)on3)o2)cc(OC)c1OC	-2%	7.8	.	-8	3
O=C(O)CCCC(=O)Nc1ccccc1SCCS(=O)(=O)c1ccc(Cl)cc1	.	-1.0	.	6	.
O=C(NCC1CCCO1)c1ccc(NC(=O)C2CC=CCC2C(=O)O)cc1 (centres undefined)	-8%	.	26	-1	9
Cc1cc(Cl)ccc1OCC(=O)NCCOc1nc(N2CCCCC2)nc(N2CCOCC2)n1	.	-2.9	-16	2	-2
COc1ccc(Cc2nc3ccc(C(=O)NCCc4ccncc4)cc3o2)cc1OC	.	-12	.	3	.
CCN(C(=O)CN1CCN(S(=O)(=O)c2ccccc2C(F)(F)F)CC1)c1c(N)n(Cc2ccccc2)c(=O)[nH]c1=O	-4%	-15	-34	4	6
CCC1(c2ccccc2)NC(=S)N(c2cccc(C)c2C)N1 (centres undefined)	1%	-1.0	-28	5	-9
Cc1ccc(CNC(=O)Nc2ccc(OC(F)(F)F)cc2)n1C	.	-0.8	.	-3	.
NS(=O)(=O)c1cccc(NC(=O)COC(=O)CCSc2ccccc2)c1	0%	0.9	-27	1	-2
Cc1csc(NC(=O)CSC2=NS(=O)(=O)c3cc(F)ccc3N2)n1	.	-0.5	.	-7	.
CC(C(=O)Nc1ccccc1C(=O)N1CCOCC1)N(c1ccc(Cl)cc1)S(C)(=O)=O (centres undefined)	1%	0.0	.	-3	0
O=C(NCc1ccccc1)c1ccc2c(c1)OCCO2	-7%	1.2	-38	-10	-3	Arbovirus inh repeat=1
Cc1ccc(NC(=O)c2cncc(Br)c2)c([N+](=O)[O-])c1	6%	-1.1	-16	3	0
